Bioassay records: PubChem, National Center for Advancing Translational Sciences (NCATS)
Vaccinia mCherry – inhibitors of vaccinia virus infection (mCherry reporter signal). Vaccinia virus mCherry reporter infection, fluorescence; about a quarter of the inactives have no number. AID 720579. Potency, µM (top dose mostly 36.5 µM), for inactives: at the top dose activity change, negative = inhibition, hits mostly inhibitors. 0.63% of 310,000 active; active = well fitted inhibition curve with a large enough effect; inconclusive = small, poorly fitted or top-dose-only effect; inactive = no such curve, though single readings can be large or run the other way; tested in A549 cells; note: nearly all actives have a fitted effect of over 35% in size; inactives centre near -10
Vaccinia Venus – inhibitors of vaccinia virus (Venus reporter); Vaccinia virus Venus reporter expression, fluorescence; Potency, µM (highest dose often 36.5 µM), without a hit: at the highest dose activity change, negative = inhibition, hits mostly inhibitors; 0.46% of 330,000 active; AID 720580; active means well fitted inhibition curve with a large enough effect; inconclusive means small, poorly fitted or top-dose-only effect; inactive means no such curve, though single readings can be large or run the other way; tested in A549 cells; note: nearly all actives have a fitted effect of over 30% in size; inactives centre near -10
* marks the source's active call; other numbers are inactive results; i = inactive; ? = inconclusive; . = no result given; & = joins results of further samples; [ ] = dose if it differs, or a comment. % is set by controls: 0 for no effect and ±100 for the full control effect; potency is the fitted concentration of half-maximal effect.

SMILES | Vaccinia mCherry | Vaccinia Venus
CCN1CCN(C(c2cccs2)C(C)NS(=O)(=O)c2ccccc2)CC1 (centres undefined) | i | -17%
COCC(C)n1c(SCC(=O)Nc2oc(C)c3c(C)n[nH]c(=O)c23)nc2ccccc2c1=O (centres undefined) | -7% | -13%
Cc1cccc(-c2nc(CNC(=O)c3ccco3)cs2)c1 | i | -15%
CCC(=O)c1ccc(OCC(=O)N2CCc3cc(OC)c(OC)cc3C2)cc1 | 3% | 9%
c1ccc(Cn2c(-c3ccccc3)nc3nc4ccccc4nc32)cc1 | -9% | -6%
O=C(NCCCN1CCOCC1)c1cc(-c2cccc(Br)c2)nc2ccccc12 | -9% | -17%
COc1ccc(-c2ccnc(SCC(=O)c3ccc(Cl)cc3)n2)cc1 | ? | -21%
O=C(N/N=C/c1ccc(OC2CSC2)cc1)c1ccccc1 | -15% | -13%
COc1ccccc1NC(=O)N(C)C[C@@H]1OCc2cnnn2CCCC(=O)N([C@H](C)CO)C[C@H]1C | -6% | 11%
O=C(OCC(=O)c1ccc[nH]1)c1ccc(S(=O)(=O)C(F)F)cc1 | i | -7%
CCc1ccccc1NC(=S)NC1CC2CCC(C1)N2Cc1ccco1 (centres undefined) | i | -10%
C#Cc1cccc(Nc2nc(NCc3ccccc3)nc3ccsc23)c1 | ? | .

Structural class: those above containing a thiophene ring, fused or not.
SMILES | Vaccinia mCherry | Vaccinia Venus
CCN1CCN(C(c2cccs2)C(C)NS(=O)(=O)c2ccccc2)CC1 (centres undefined) | i | -17%
C#Cc1cccc(Nc2nc(NCc3ccccc3)nc3ccsc23)c1 | ? | .

(list continues)
SMILES | Vaccinia mCherry | Vaccinia Venus
Cc1cc(N2C(=O)C(O)=C(C(=O)c3cccs3)C2c2cccc(Br)c2)no1 (centres undefined) | i | -7%
COc1ccc(N2CC(O)(c3ccc(OC(F)F)cc3)[N+]3=C2CCCC3)cc1 (centres undefined) | -15% | -1%
O=C(NC(CO)(CO)CO)[C@@H]1CCCN1S(=O)(=O)c1cccc2cccnc12 | -13% | -8%
CC(C)CC(c1nnnn1C1CCCC1)N1CCN(c2ccccc2F)CC1 (centres undefined) | . | ?
Cc1ccnc(SCCn2c(Br)nc3c2c(=O)[nH]c(=O)n3C)n1 | i | -5%
CC(=NCc1ccc2c(c1)OCO2)C1=C(O)c2ccccc2C1=O | i | -5%
O=C(Nc1ccc2nn(-c3ccccc3)nc2c1)c1cccnc1 | . | -7%
CCCCc1cc(=O)oc2cc(OCC(=O)NC(Cc3c[nH]c4ccc(O)cc34)C(=O)O)ccc12 (centres undefined) | 5% | -5%
COC(=O)C1=CO[C@@H](C)[C@@H]2CN(CCc3c[nH]c4ccccc34)CC[C@H]12 | i | -12%
Cn1c(SCC(=O)Nc2sccc2C(N)=O)nc2ccccc2c1=O | -6% | -11%
CC(C)OCCCN(C)C1CCN(S(=O)(=O)c2csc(C(N)=O)c2)CC1 | -8% | 3%
Cc1ccc(O)c(C2=Nc3ccccc3C2(C)C)c1 | i | -3%
Cc1ccc2nc(-c3cccc(SC4CCCCC4)c3)c(NCc3ccccc3)n2c1 | -34%&-4% | ?
COC(=O)C1CN(C(=O)COc2ccc(C)c(C)c2)c2ccccc2O1 (centres undefined) | -3% | -6%
CCCCCC1C(=O)CCC1CC(=O)OC (centres undefined) | 7% | 9%&-16%
CCCCN1CC(=O)N2[C@H](c3ccc(Cl)cc3)[C@@H]3C(=O)N(CC)C(=O)[C@@H]3[C@]2(C)C1=O | i | -12%
CCOC(=O)N1CCN(c2c(NCC3CCN(Cc4cccc(C)c4)CC3)c(=O)c2=O)CC1 | i | -1%
CCS(=O)(=O)c1ccc(C(=O)Nc2cccc(Cl)c2)c(Cl)c1Cl | . | ?
Cc1ccc(C(=O)N[C@H](C(=O)Nc2cc(Cl)cc(Cl)c2)C(C)C)cc1 | i | -9%
COC(=O)c1cccc(Nc2nn3c(=O)c4cc5c(cc4nc3s2)OCO5)c1 | 5% | 8%
CCOc1ccc(C(O)Cn2c(=N)n(CCN3CCCCC3)c3ccccc32)cc1 (centres undefined) | -28% | -21%
O=C(NCC1CCCN1S(=O)(=O)c1cccs1)c1ccc([N+](=O)[O-])cc1 (centres undefined) | -20% | -11%
Cc1cc(NC(=O)CSCc2ccccc2)no1 | i | 0%
CN(C)Cc1c(C(=O)N/N=C/c2cccs2)nnn1-c1nonc1N | -9% | -5%

Individual results from the entries so far:
In Vaccinia Venus, COC(=O)C1CN(C(=O)COc2ccc(C)c(C)c2)c2ccccc2O1 (centres undefined) is entered as -6%
In Vaccinia Venus, Cc1cc(NC(=O)CSCc2ccccc2)no1 is entered as 0%
In Vaccinia mCherry, CN(C)Cc1c(C(=O)N/N=C/c2cccs2)nnn1-c1nonc1N is entered as -9%

Ordered by number of heavy atoms (descending): part of the list above.
SMILES | Vaccinia mCherry | Vaccinia Venus
CCOC(=O)N1CCN(c2c(NCC3CCN(Cc4cccc(C)c4)CC3)c(=O)c2=O)CC1 | i | -1%
Cc1ccc2nc(-c3cccc(SC4CCCCC4)c3)c(NCc3ccccc3)n2c1 | -34%&-4% | ?
COC(=O)c1cccc(Nc2nn3c(=O)c4cc5c(cc4nc3s2)OCO5)c1 | 5% | 8%
O=C(NCC1CCCN1S(=O)(=O)c1cccs1)c1ccc([N+](=O)[O-])cc1 (centres undefined) | -20% | -11%
CN(C)Cc1c(C(=O)N/N=C/c2cccs2)nnn1-c1nonc1N | -9% | -5%
CCS(=O)(=O)c1ccc(C(=O)Nc2cccc(Cl)c2)c(Cl)c1Cl | . | ?

Going on with the list.
SMILES | Vaccinia mCherry | Vaccinia Venus
CC(C)CC1c2[nH]c3ccccc3c2CCN1CCCn1cccn1 (centres undefined) | ? | 12%
Fc1ccc(Nc2nc(-c3cccnc3)cs2)cc1 | ? | -7%
Cc1ccccc1Cn1c(=O)n(CC2CCC(C(=O)N3CCOCC3)CC2)c(=O)c2sccc21 (centres undefined) | -27% | -22%
CCOc1ccc(Br)cc1C1NC(=O)c2c(sc3c2CCN(C)C3)N1 (centres undefined) | -12% | 13%
COc1ccc(SC2=C[C@@]3(O)CC[C@@H](O)[C@@](Sc4ccc(OC)cc4)(C2=O)[C@H]3O)cc1 | 0% | -4%
Cc1ccsc1/C=N/NC(=O)Cc1cc(=O)[nH][nH]1 | i[7.34 µM] | 3%[7.34 µM]
COc1ccc(/C=N/NC(=O)c2ccccc2O)cc1Cn1cc(Cl)cn1 | . | 2%
CCS(=O)CC(=O)Nc1c(-c2ccccc2)oc2ccccc2c1=O (centres undefined) | i | 6%
CCOC(=O)C(NC(=O)CC)(Nc1sc2c(c1C(=O)OC)CCN(C)C2)C(F)(F)F (centres undefined) | -19% | -11%
COc1ccc(C2C(C#N)=C(C)NC(C)=C2C#N)c(OC)c1 | -3% | 3%
O=C(COc1ccc(C(=O)NCc2cccnc2)cc1)Nc1cccc(C(F)(F)F)c1 | -14% | -24%
CCc1cccc(NC(=O)Cn2cc(C(=O)c3ccncc3)c(=O)c3cc(C)c(C)cc32)c1 | -20% | -18%
CCC1=C(c2ccc(C)cc2)S(=O)(=O)N=C1N1CCC(C(=O)NCc2ccccc2Cl)CC1 | -11% | -10%
CC(=O)c1ccc(NC(=O)Cn2ncc3c4ccccc4n(Cc4ccccc4)c3c2=O)cc1 | -14% | -12%
COc1ccc(CCNC(=O)CN(c2cccc([N+](=O)[O-])c2)S(C)(=O)=O)cc1OC | -4% | -14%
COc1ccc(N2CCN(S(=O)(=O)c3c(C)nc4sccn4c3=O)CC2)cc1 | 22% | -5%
O=C(COc1ccc(/C=N/NS(=O)(=O)c2ccccc2)cc1)Nc1ccccc1 | i | -6%
O=C(Nc1ccc(F)cc1)c1ccc(C(=O)N2CCOCC2)cc1 | i | -9%
COc1cc(C(=O)Nc2nc3ccc(S(C)(=O)=O)cc3s2)cc(OC)c1C | -4% | -24%
N/C(=N\OC(=O)c1cc([N+](=O)[O-])ccc1Cl)c1ccccn1 | -9% | -11%
CCC(=O)N1c2ccccc2CC1C(=O)NCCCN1CCN(c2ccc(F)cc2)CC1 (centres undefined) | -19% | -12%
CCOC(=O)c1[nH]c2ccccc2c1NC(=O)CC | i | -10%
CCOC(=O)N1CCN(Cc2nc(Cc3cccc(F)c3)no2)CC1 | -6% | -10%
COc1ccc(-n2nnnc2CNC(=O)C2CC(=O)N(c3ccc(F)cc3)C2)cc1 (centres undefined) | 6% | -13%
COc1ccc(-c2cc(=Nc3cccc(C(=O)O)c3)c3cc(C)ccc3o2)cc1 | i | 0%
Cc1ccc(C2=Nn3c(COc4ccc(Cl)cc4)nnc3SC2CC(=O)O)cc1 (centres undefined) | -8% | -3%
O=C(NCCN1CCOCC1)c1ccc(NC(=O)c2ccc(Br)o2)cc1 | 34%[activator] | 11%
CC1CCN(C(=O)C2CCCN(S(=O)(=O)c3ccc4c(c3)CC(C)N4C(=O)C3CC3)C2)CC1 (centres undefined) | -17% | -23%
Cc1ccc(C)c(NS(=O)(=O)c2ccc(OCC(=O)NCC3CCCO3)cc2)c1 (centres undefined) | 0% | -5%
C=C1C(=O)[C@]23C[C@H]1CC[C@H]2[C@]1(C)[C@@H](O)CC[C@@](C)(C(=O)O)[C@H]1C[C@@H]3O | ? | -29%
Cc1ccc(-c2ccc(C(=O)NCCCNC(=O)c3cnccn3)o2)cc1Cl | i | -13%
CC(Oc1ccc(Cl)cc1Cl)C(=O)Nc1ncccn1 (centres undefined) | i | -21%
Cc1ccccc1SCc1noc(C(=O)NC(C)C)c1C(=O)O | i | -11%
CCOc1ccccc1NC(=O)COc1coc(CN2CCc3ccccc32)cc1=O | -24% | -21%
COc1ccccc1C(=O)Nc1ccnn1C1CCN(C(=O)c2ccoc2)CC1 | i | 1%
O=C(CSc1ccccc1C(=O)N1CCN(c2ccc([N+](=O)[O-])cc2)CC1)N1CCCC1 | ? | -21%
CCc1noc(N)c1C(=O)Nc1ccc(F)c(Cl)c1 | ? | ?
CCN(Cc1ccccc1)C(=O)Cn1c(=O)n(-c2ccccc2)c(=O)c2c1c1cc(C)ccc1n2C | -14% | -8%
Cc1cc(OCC(=O)Nc2ccncc2)ccc1Cl | -3% | -28%
COc1ccccc1N1CCN(C(=O)c2cc(-c3ccc(F)cc3)on2)CC1 | -16% | 4%&-1%
Cc1occc1C(=O)N1CCCC(N2CCN(c3cccc(Cl)c3)CC2)C1 (centres undefined) | 0% | -11%
Cc1c(C)n(Cc2ccc(Cl)cc2)c2ccc(C(=O)NCCc3ccc(S(N)(=O)=O)cc3)cc12 | -13% | -29%
Cc1ccc2nc(-c3ccncc3)cc(C(=O)N3CCOCC3)c2c1 | -12% | -1%
COc1cc(NC(=O)Cn2ccn(-c3cc(C)cc(C)c3)c(=O)c2=O)cc(OC)c1 | -4% | -7%
Cc1noc(C)c1S(=O)(=O)N(C)C[C@H]1OCCCC[C@H](C)Oc2ccc(NC(=O)CCCN(C)C)cc2C(=O)N([C@H](C)CO)C[C@@H]1C | 0% | -3%
CC(=O)N/C(=C\c1cccs1)C(=O)O | 0% | 1%
CN(C)c1ccc(/C=C2/NC(=O)NC2=O)cc1 | -15% | -13%
O=C(COc1cc2oc(=O)c3c(c2cc1Cl)CCC3)NCCCN1CCOCC1 | -19% | -5%
CCOC(=O)N1CCN(Cc2nc3cc([N+](=O)[O-])ccc3n2C)CC1 | -26% | -7%
O=C(Cc1ccc(F)cc1)NCCc1csc(-c2ccc(C(F)(F)F)cc2)n1 | -26% | -16%
COC(=O)c1ccc(CN2C(=O)NC(CC(C)C)C2=O)cc1 (centres undefined) | -1% | -9%
CCOc1ccccc1NC(=O)c1c(NC(=O)COc2ccc(Cl)cc2)sc2c1CCCCC2 | -5% | 0%
COc1ccc(S(=O)(=O)N2CCN(C(=O)c3ccccc3Cc3ccccc3)CC2)cc1OC | ? | -4%
CCCC(=O)N1CCC1(C)C(=O)Nc1scc(C)c1C#N (centres undefined) | -3% | 2%
CSc1ccc(CCNC(=O)C2CCN(c3ncnc4c3nc3n4CCCCC3)CC2)cc1 | i | -12%
Cc1c(C(=O)Nc2nc(-c3ccc(F)cc3)ns2)oc2ccc(Br)cc12 | 4% | -1%
Cn1c(N=NC(=O)c2ccccc2)c(O)c2ccccc21 | i | 1%
COC(=O)c1[nH]c2ccccc2c1NC(=O)CN1CCCCCC1 | -23% | -15%
COCCNC(=O)C1(C)CCCN(C(=O)c2ccccc2OC(F)(F)F)C1 (centres undefined) | 0% | -8%
Oc1ccc2ccccc2c1C=Nc1ccccc1-c1nc2ccccc2[nH]1 | ? | -17%
(listing goes on)
SMILES | Vaccinia mCherry | Vaccinia Venus
Cc1ccc(C)c(C(=O)CSc2nnnn2-c2cccnc2)c1 | -16% | -11%
CCOc1ccc(-c2cc(NC(=O)Cn3ncc4c3-c3ccccc3OC4)on2)cc1OCC | -18% | ?
CC(=O)Nc1ccc(NC(=O)CSc2nnc3ccc(-c4ccc(F)cc4)nn23)cc1 | -4% | 0%
Cc1ccc(S(=O)(=O)N2[C@@H](c3ccc(C(C)(C)C)cc3)C(C(=O)O)=CC[C@H]2c2ccc3c(c2)OCO3)cc1 | -18% | -7%
